Source: PubChem (National Center for Advancing Translational Sciences (NCATS))
miR-21 FLuc = miR-21 reporter, rising signal; HeLa miR-21 FLuc reporter, luciferase, 48 h; Potency, µM (doses to about 38.3 µM), without a hit: top-dose reporter change, positive = more light; 340,000 tested, under 10 active; active = well fitted rising curve with a large enough effect; inconclusive = small, poorly fitted or top-dose-only effect; inactive = no such curve, though single readings can be large or run the other way;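 also: % of control where 0% means no effect; miR-21 action dims this reporter so a rising signal means less miR-21 action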
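HeLa miR-21-FLuc reporter line, endogenous miR-21; 2000 cells/well in DMEM/10% FBS; compound titration up to ~40uM final, 48 h, 37 degree Celsius; luciferase detection reagent, 15 min lysis, CCD luminescence.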
Rango release inh = prevents RanGTP from dissociating the Rango-importin beta complex; Biochemical FRET Rango-importin beta, RanGTP-induced dissociation; O95149+P62826; AID 540253; 340,000 compounds, 0.071% hits; Potency, µM (doses to about 46.1 µM), without a hit: at the highest dose activity change, negative = inhibition; active means falling FRET ratio curve, often poorly fitted, with flat reads before Ran was added; inconclusive means other falling curves, or compound fluorescence or quenching; inactive means flat or rising ratio curve;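 also: potency is read from the fitted curve at half-maximal effect; % of control where 0% means no effect; nearly all actives have a fitted effect of over 45% in size; -100% = wells without RanGTP and RCC1; the record marks most hits as doubtful in a second field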
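Compounds preincubate 5 min with complex of recombinant Rango and importin beta in PBS with 1 mM DTT. Ran (0.6 uM) loaded with 2 mM GTP plus 0.2 uM RCC1 starts dissociation; FRET is recorded 45 min later.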
Rango complex inh = inhibitors of Rango-importin beta complex formation. Q14974. Rango CFP/YFP FRET sensor + importin beta, 45 min. Potency, µM (titrated, usually from 92.2 µM), for the others: at the top dose inhibition of complex formation. 340,000 compounds, 0.031% hits; active = rising FRET ratio curve, often small or poorly fitted; inconclusive = mostly compound fluorescence or quenching in the first reads; inactive = flat curves in all reads;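 also: potency is read from the fitted curve at half-maximal effect; 0% = DMSO wells and 100% = buffer wells lacking importin beta; nearly all actives have a fitted effect of over 15% in size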
Target sequence (Q14974 whole entry, looked up): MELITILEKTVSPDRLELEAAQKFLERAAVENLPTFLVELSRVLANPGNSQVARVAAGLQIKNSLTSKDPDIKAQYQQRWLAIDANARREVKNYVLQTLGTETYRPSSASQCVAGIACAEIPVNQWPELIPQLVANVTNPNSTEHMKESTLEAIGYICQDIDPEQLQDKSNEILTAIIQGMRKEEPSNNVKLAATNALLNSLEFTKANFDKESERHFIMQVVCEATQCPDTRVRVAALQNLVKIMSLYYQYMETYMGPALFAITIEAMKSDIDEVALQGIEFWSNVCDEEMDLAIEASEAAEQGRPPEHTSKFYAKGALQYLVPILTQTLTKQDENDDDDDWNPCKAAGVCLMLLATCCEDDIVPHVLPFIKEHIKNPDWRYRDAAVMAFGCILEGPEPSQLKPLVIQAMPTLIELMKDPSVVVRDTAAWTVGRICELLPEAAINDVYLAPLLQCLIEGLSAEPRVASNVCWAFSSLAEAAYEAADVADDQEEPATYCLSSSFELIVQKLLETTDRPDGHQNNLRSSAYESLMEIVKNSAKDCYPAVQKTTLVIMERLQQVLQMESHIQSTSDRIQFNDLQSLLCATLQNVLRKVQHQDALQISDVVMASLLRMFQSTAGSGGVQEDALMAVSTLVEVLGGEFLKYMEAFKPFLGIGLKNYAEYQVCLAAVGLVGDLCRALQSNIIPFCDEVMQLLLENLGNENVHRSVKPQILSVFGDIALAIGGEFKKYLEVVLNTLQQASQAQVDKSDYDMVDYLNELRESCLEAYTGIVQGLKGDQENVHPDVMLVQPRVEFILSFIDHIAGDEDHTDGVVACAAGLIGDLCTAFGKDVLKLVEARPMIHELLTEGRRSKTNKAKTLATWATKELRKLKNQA
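FRET biosensor Rango (snurportin 1 IBB between N-terminal EYFP and C-terminal Cerulean), 50 nM in PBS/1 mM DTT/0.02% Tween-20/0.1% BSA, preincubated 5 min RT with compound; 0.125 microM importin beta added, 45 min RT, CFP/YFP FRET ratio read.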
GLA inh pH 4.5 = inhibitors of human alpha-galactosidase A at pH 4.5. P06280. purified enzyme, 4-MU-alpha-Gal fluorescence, pH 4.5. activity change, negative = inhibition, % at 105 µM. 230,000 tested, under 10 active. AID 1467; inconclusive = small, poorly fitted or top-dose-only inhibition, or a rising curve; inactive = flat fitted curve, though single readings scatter; no compound was filed as active;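 also: 0% = full activity with enzyme and -100% = basal without enzyme; dose as in the result columns while the protocol names 77 µM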
The depositor's hits bear a star; ? = inconclusive; nt = not tested or not shown; & = joins results of further samples.

miR-21 FLuc	Rango release inh	Rango complex inh	GLA inh pH 4.5	SMILES
2%	9%	2.4%	0	O=C(Nc1ccccn1)C1(c2ccccc2)CCCC1
-54%	0%	0.1%	nt	O=C(NCc1ccc2c(c1)OCO2)Nc1ccc(Cl)cc1
-11%	27%	-0.9%	-1	Cc1ccc(S(=O)(=O)N2CCN(Cc3ccsc3)CC2)cc1
-9%	0%	2.1%	nt	COc1ccc(N=Nc2cc(-c3ccccc3)ccc2O)cc1
-14%	4%	-3.6%	11	COc1cc(/C=N/NC(=O)c2cccnc2)ccc1OCC(=O)Nc1ccccc1Cl
0%	-4%	-3.9%	nt	O=C(CSc1ncnc2c1nnn2Cc1ccccc1)NC1CCCCC1
nt	?	-2.7%	nt	CCOC(=O)c1ccc(N(CCC2CO2)S(=O)(=O)c2ccc(C)cc2)cc1 (stereo not drawn)
nt	4%	-3.3%	nt	Cc1nn(-c2nccs2)c2c1C(=O)CC(C)(C)C2Br (stereo not drawn)
-3%	-18%	-2.4%	-4	C=CCn1c(SCC(=O)c2[nH]c(C)c(C(=O)OCC)c2C)nc2scc(-c3ccc(OC)c(OC)c3)c2c1=O
-6%	9%	1.1%	-3	COc1cc(OC)c(C(=O)OC(C)C(=O)Nc2cccc(C(F)(F)F)c2)cc1OC (stereo not drawn)
0%	-8%	?	nt	C/C(=N\NS(=O)(=O)c1ccc(Br)cc1)c1ccc2c(c1)OCO2
?	5%	1.8%	-15	Cc1c(C(=O)NCc2ccc3c(c2)OCO3)oc2ccc(S(=O)(=O)N3CCCC3)cc12
nt	0%	0.0%	nt	Cc1noc(C)c1CSc1ccccc1C(=O)N(C)CC(=O)Nc1cccc(F)c1
-6%	21%	-3.1%	5	Cc1nc2c(c(C)nn2-c2ccccc2)c(C)c1Cl
-4%	-6%	-2.8%	2	COC(=O)c1ccc(OCC(O)CN(CCO)CCO)cc1 (stereo not drawn)
4%	27%	-0.3%	nt	O=C(Nc1ccc([N+](=O)[O-])cc1)c1cc(Cl)sc1Cl
-1%	-1%	-0.4%	-2	O=[N+]([O-])c1ccc(N2CCCC2)cc1N1CCCC1
-1%	-1%	0.5%	1	CCCCOc1ccccc1NC(=O)c1ccc(=O)[nH]c1
-41%	-2%	2.8%	10	CC(C)C/C=C1\CCc2c([nH]c3ccccc23)C1=O
0%	2%	-2.8%	0	Cc1cc(C)nc(N2CCC(C(=O)Nc3ccc(Oc4ccccc4)cc3)CC2)n1
-30%	0%	-0.3%	nt	COc1ccc(C2CC(c3ccc(OC)c(OC)c3)=NN2C(=O)c2ccccc2)cc1 (stereo not drawn)
-43%	?	0.5%	nt	O=C1/C(=C/c2cccc(F)c2)Oc2cc(O)ccc21
1%	1%	-4.8%	nt	Cc1ccc(OCC(=O)NCCCNC(=O)c2ccncc2)cc1
nt	-10%	4.6%	nt	CC1(CCc2ccccc2)NC(=O)N(CC(=O)Nc2ccccc2C#N)C1=O (stereo not drawn)
1%	0%	-0.1%	4	CCOC(=O)NC(=O)c1cn(Nc2ncc(Cl)cc2C(F)(F)F)c(=O)[nH]c1=O
-11%	-10%	0.8%	nt	Cc1nn(-c2ccccc2)c(Cl)c1C(=O)NCc1ccccc1F
0%	15%	6.7%	nt	O=S(=O)(c1ccc(F)cc1)N1CCCC1
-7%	-3%	-4.7%	-1	O=C(CSc1cccc[n+]1[O-])c1cccs1
-6%	9%	-4.3%	-1	CCC(Cc1ccccc1)NC(=O)CN(C)S(=O)(=O)c1ccc2c(c1)c(=O)n(C)c(=O)n2C (stereo not drawn)
22%	-5%	-0.5%	nt	COc1ccc(S(=O)(=O)N2CCN(CCc3ccccc3)CC2)c(OC)c1
0%	7%	-2.3%	2	CCO[C@H]1OC(C(=O)N2CCN(Cc3ccc4c(c3)OCO4)CC2)=C[C@@H](C(C)(C)C)[C@@H]1CCCO
-4%	-2%	2.9%	-6	O=C(/C=C/c1ccccc1)N1CCN(S(=O)(=O)c2ccc(F)cc2)CC1
-68%	-17%	?	nt	Cc1occc1C(=O)N/N=C/c1cccc2ccccc12
0%	1%	2.0%	0	S=c1nccc(-c2cc(Cl)sc2Cl)[nH]1
-5%	4%	0.4%	-3	Cc1noc2ncnc(Oc3ccc4ccccc4c3)c12
-5%	2%	-2.9%	5	FC(F)(F)c1cccc(-c2ccn3ncnc3n2)c1
-8%	-2%	-0.1%	nt	O=C(Nc1cccc(Cl)c1)C1CCCN(c2cnccn2)C1 (stereo not drawn)
-14%	0%	-1.8%	-8	COCCOC(=O)C1=C(C)Nc2cc(=O)[nH]c(=O)n2C1c1cccc([N+](=O)[O-])c1 (stereo not drawn)
15%	9%	-5.0%	5	CCCNc1nc2c(c(=O)n(C)c(=O)n2C)n1Cc1ccc(F)cc1
1%	0%	-0.3%	nt	NC(=O)c1ccc(NC(=O)CCN2C(=O)c3ccccc3C2=O)cc1
24%	-20%	1.6%	nt	CCOc1ccc(CN2CCN(C(=O)c3cccc4ccccc34)CC2)cc1
18%	2%	-1.4%	nt	COc1cccc(CN2CCN(C(c3ccccc3)c3ccccc3)CC2)c1O
1%	?	?	-11	CCN1CCN(CCNC(=O)c2ccc(/C=C3/Sc4ccccc4N(Cc4cccc(C)c4)C3=O)cc2)CC1
-7%	-7%	1.4%	1	CCOC(=O)c1cnn(CCOC(=O)c2ccc(F)cc2)c1NC(=O)c1ccc(F)cc1
-8%	7%	2.3%	-9	Cc1cccc(N2CCN(S(=O)(=O)c3cccc4nonc34)CC2)c1C
-5%	-13%	4.2%	nt	O=C(NC12CC3CC(CC(C3)C1)C2)c1ccc(Br)o1
nt	1%	5.1%	nt	COc1cc(C)c(C(=O)CC(=O)c2c(C)cc(OC)cc2C)c(C)c1
-14%	-15%	-1.5%	6	COC(=O)CNC(=O)C1CCCN1C(=O)CNC(=O)OC(C)(C)C (stereo not drawn)
-1%	-5%	-1.7%	nt	CSc1nc2ccccc2c(=O)n1C1CCCCC1
-14%	1%	-0.5%	9	CCOc1ccc(C(=O)c2cnc3ccccc3c2N2CCN(CC)CC2)cc1

Additional compounds
miR-21 FLuc	Rango release inh	Rango complex inh	GLA inh pH 4.5	SMILES
0%	-3%	-1.1%	-3	CC(C)NC(=O)C1CCCN(S(=O)(=O)c2cccs2)C1 (stereo not drawn)
-57%	15%	1.2%	nt	N#Cc1ccccc1NC(=O)COc1ccc2c(c1)OCO2
-6%	-2%	-0.9%	-2	O=C1CC(N2CCN(c3ccc(O)cc3)CC2)C(=O)N1Cc1cccs1 (stereo not drawn)
-4%	-19%	2.2%	-8	COc1ccc(N2CCN(C(c3ccccc3OC)c3nnnn3Cc3ccco3)CC2)cc1 (stereo not drawn)
-8%	1%	0.9%	4	Cc1ccsc1-c1nc(CSCC(=O)NCCN2CCCC2)c(C)o1
6%	2%	-3.9%	nt	Cc1ccc(C(=O)Cn2c(C(=O)OCCO)cc3ccccc32)cc1
10%	-23%	3.2%	-1	CC1CCN(S(=O)(=O)c2ccc(NC(=O)Cn3nnc(-c4ccccc4)n3)cc2)CC1
-7%	-13%	6.2%	-9	Cn1cccc1Cc1nnc(SCC(N)=O)n1-c1ccc(F)cc1
-1%	-11%	-3.7%	7	CCc1ccccc1N/C(=N\S(=O)(=O)c1ccccc1)C(F)(F)F
-10%	-12%	-4.2%	8	Cc1ccc(NC(=O)CS(=O)CC(=O)Nc2ccc3c(c2)OCO3)cc1Cl (stereo not drawn)
-7%	-4%	-1.0%	-6	CN1CCN(S(=O)(=O)c2ccc(Sc3nc4ccccc4[nH]3)c3nsnc23)CC1
11%	2%	-2.7%	nt	Cc1ccc(NC(=O)c2cccs2)cc1NC(=O)c1cccc(F)c1
nt	4%	0.3%	nt	C[C@@H]1CCC[C@@]2(O[C@@H](CCO)C[C@@H](O)[C@@H]2O)O1
-12%	0%	?	-25	CCOC(=O)C1C(=O)C=C(c2cccc(NS(C)(=O)=O)c2)CC1c1ccco1 (stereo not drawn)
-2%	7%	0.8%	nt	OC[C@H]1O[C@@H]2O[C@H]3[C@H](O)[C@@H](O)[C@@H](O[C@H]4[C@H](O)[C@@H](O)[C@@H](O[C@H]5[C@H](O)[C@@H](O)[C@@H](O[C@H]6[C@H](O)[C@@H](O)[C@@H](O[C@H]7[C@H](O)[C@@H](O)[C@@H](O[C@H]1[C@H](O)[C@H]2O)O[C@@H]7CO)O[C@@H]6CO)O[C@@H]5CO)O[C@@H]4CO)O[C@@H]3CO
-7%	-16%	-1.2%	-5&0	CC(=O)Oc1ccc(C(c2ccc(OC(C)=O)cc2)c2ccccn2)cc1
11%&17%	4%	-5.3%	nt	COc1ccc(CNC(=O)CCS(=O)(=O)c2ccc3c(c2)CC(C)N3C(=O)C2CC2)cc1 (stereo not drawn)
5%	-25%	4.8%	1	CN(C)CCN1C(=O)C2C3C=CC(C3)C2C1=O (stereo not drawn)
0%	0%	1.4%	6	C=CCn1c(COc2ccc(CC)cc2)nnc1SCC(=O)N(C)C1CCS(=O)(=O)C1 (stereo not drawn)
-1%	19%	-3.1%	3	Cc1[nH]c2ccccc2c1C(=O)CSc1nc2ncc(Cl)cc2[nH]1
-1%	-16%	-1.7%	3	COc1ccc(Oc2ncnc3c2oc2ccc(Br)cc23)cc1
nt	-5%	0.7%	nt	Cc1nnc2ccc(-c3cccc(NS(=O)(=O)c4cc(F)ccc4F)c3)nn12
0%	2%	?	1	COc1ccc(CNC(=O)CNS(=O)(=O)c2ccc(Cl)cc2)cc1
-77%	8%	0.4%	4	Cc1c(-c2ccccc2)[nH]n2c(=O)c3c(nc12)CCCC3
1%	0%	3.2%	nt	O=C(N/N=C/c1cc(Cl)cc([N+](=O)[O-])c1O)C(O)(c1ccccc1)c1ccccc1
nt	14%	-1.2%	nt	COC(=O)C1(C)CCC(C(=O)Nc2ccccc2)C1(C)C (stereo not drawn)
0%	-9%	1.0%	10	O=S(=O)(c1ccc(F)cc1)N1CCC(N2CCCC2)CC1
-3%	23%	-0.5%	0	Cc1cccc(NC(=O)c2n[nH]c([N+](=O)[O-])c2Br)c1C
0%	-5%	3.0%	4	CCOC(=O)c1c(C2COc3ccccc3O2)csc1NC(=O)c1ccccc1 (stereo not drawn)
nt	-4%	1.1%	nt	Cc1cc(C)n(CCCNC(=O)c2ccc(C)c(S(=O)(=O)N3CCOCC3)c2)n1
nt	-5%	1.8%	nt	Nc1cc(=O)[nH]c(SCC(=O)N2CCCC2)n1

In the list so far, these have a Cl atom.
miR-21 FLuc	Rango release inh	Rango complex inh	GLA inh pH 4.5	SMILES
-54%	0%	0.1%	nt	O=C(NCc1ccc2c(c1)OCO2)Nc1ccc(Cl)cc1
-14%	4%	-3.6%	11	COc1cc(/C=N/NC(=O)c2cccnc2)ccc1OCC(=O)Nc1ccccc1Cl
-6%	21%	-3.1%	5	Cc1nc2c(c(C)nn2-c2ccccc2)c(C)c1Cl
4%	27%	-0.3%	nt	O=C(Nc1ccc([N+](=O)[O-])cc1)c1cc(Cl)sc1Cl
1%	0%	-0.1%	4	CCOC(=O)NC(=O)c1cn(Nc2ncc(Cl)cc2C(F)(F)F)c(=O)[nH]c1=O
-11%	-10%	0.8%	nt	Cc1nn(-c2ccccc2)c(Cl)c1C(=O)NCc1ccccc1F
0%	1%	2.0%	0	S=c1nccc(-c2cc(Cl)sc2Cl)[nH]1
-8%	-2%	-0.1%	nt	O=C(Nc1cccc(Cl)c1)C1CCCN(c2cnccn2)C1 (stereo not drawn)
-10%	-12%	-4.2%	8	Cc1ccc(NC(=O)CS(=O)CC(=O)Nc2ccc3c(c2)OCO3)cc1Cl (stereo not drawn)
-1%	19%	-3.1%	3	Cc1[nH]c2ccccc2c1C(=O)CSc1nc2ncc(Cl)cc2[nH]1
0%	2%	?	1	COc1ccc(CNC(=O)CNS(=O)(=O)c2ccc(Cl)cc2)cc1
1%	0%	3.2%	nt	O=C(N/N=C/c1cc(Cl)cc([N+](=O)[O-])c1O)C(O)(c1ccccc1)c1ccccc1

These rows are one share of the data; the hit share may differ from the screen's.
